Autofluor counter: counter-screen for toxin protease inhibitors: compound fluorescence. compound autofluorescence counterscreen, microsphere flow cytometry; hits give high values. fluorescence intensity (no concentration beside the values). 360,000 tested, 3.1% active;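 active = at least 3 SD above the mean of all compounds, about 16000 in these data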;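 also: 100 nL of 1 mM stock went into each well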
ugtP null kill: growth inhibition of ugtP-null S. aureus, primary screen, RN4220 ugtP deletion, OD600 | 16 h; some inactives read as strong as hits | growth inhibition, % (concentration not given with the values) | 330,000 tested, 0.54% active | AID 1259309, 2017;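 active = z-score under -3 and OD600 up to 0.15 on both plates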;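 also: plate controls were untreated wells for no effect and antibiotic for full effect; wells of about 80 µL received 100 nL stock; the first replicate is given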
RN4220 kill: growth inhibition of S. aureus RN4220, primary screen, OD600; 16 h; inhibition, % (concentration not given with the values); 330,000 tested, 0.33% active; AID 1259311, 2017;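 active = z-score of -3 or lower and OD600 up to 0.18 on both plates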;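 also: plate controls were untreated cells for no effect and reference antibiotic for full effect; stock transfer was 100 nL into about 80 µL; one replicate is shown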
Mtb hypoxia inh: PubChem AID 1159583. M. tuberculosis hypoxia-regulated fluorescent reporter, fluorescence. fluorescence inhibition, % (concentration not given with the values). 300,000 tested, 0.1% active;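 active = 35 to 45% if threefold the growth effect, above 45% if 1.5-fold the growth effect; inactive = the rest, general growth blockers included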;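 also: wells of about 50 µL received 100 nL stock; 0% = vehicle wells and 100% = reference inhibitor wells; whole bacteria with a GFP reporter of the hypoxia response; strong numbers were not always called active; many hits fall short of the cut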
PrP UTR inh: inhibition of PrP 5' UTR reporter expression; cell-based PrP 5' UTR mRNA reporter, plate reader; inhibition, % (test concentration not listed); 340,000 tested, 0.35% active; AID 488862, 2010;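 active = every replicate at 50% or more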;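 also: 0 = median of the neutral control wells; tested in H4 reporter cells; numbers are from one replicate; inactives centre near -14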
BJeLR viability: MLPCN primary cell-based screen for lethality selective to Ras in HRASV12 cells; 300,000 tested, 0.17% active; BJeLR (HRASV12) viability, CellTiter-Glo ATP luminescence, 48 h; reference of the scale not given here; AID 1554, 2009; inhibition, % (no concentration beside the values);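 active = replicate mean above 50%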;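 also: 50 nL library stock added to about 25 µL; numbers are from one replicate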
Mtb hypoxia inh growth: second read-out of Mtb hypoxia inh, no call of its own (marks repeat the call); growth inhibition, %; measured here: M. tuberculosis growth (absorbance);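 0% = vehicle and 100% = reference antibiotic; read after six days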
Numbers without * were called inactive; . = no result given.

smiles	Autofluor counter	ugtP null kill	RN4220 kill	Mtb hypoxia inh	Mtb hypoxia inh growth	PrP UTR inh	BJeLR viability
CC1c2[nH]c3ccccc3c2CCN1S(C)(=O)=O (configuration not stated)	4279	4	3.6	.	.	-14	-1
O=C(NN=Cc1cc2c(cc1Cl)OCO2)c1cccc(Br)c1	.	11	18	13	-14	.	.
CC(C)CSc1nnc2c(n1)[nH]c1ccccc12	11366	5	21	21	12	-27	1
COc1ccccc1C(=O)Nc1ccc(N2CCN(Cc3ccccc3)CC2)cc1	2960	-21	-21	4	16	-10	-3
O=C(c1cccs1)N1CCN(Cc2ccncc2)CC1	3011	-9	4.2	8	14	-7	1
Cn1c(=O)c2c(nc3n2CC(COc2ccccc2)O3)n(C)c1=O (configuration not stated)	4089	4	3.0	-11	-21	-7	-1
O=C(COc1ccccc1O)Nc1ccccc1Cl	3656	2	-2.4	.	.	-75	-9
COc1ccc(C2C(CN3CCOCC3)C(=O)N2c2ccccc2)cc1 (configuration not stated)	3148	6	0.8	10	8	-31	2

More compounds follow:
smiles	Autofluor counter	ugtP null kill	RN4220 kill	Mtb hypoxia inh	Mtb hypoxia inh growth	PrP UTR inh	BJeLR viability
Cc1ccc(-c2cc(C(F)F)n3ncc(C(=O)Nc4cn(C)nc4C)c3n2)cc1	2099	5	-0.1	6	15	-14	3
CC(CCN1C(Nc2ccccc2)=NCC1Cc1ccccc1)c1ccccc1 (configuration not stated)	.	1	-1.0	3	6	.	.
Cc1ccc(NC2=C/C(=N/S(=O)(=O)c3cccs3)c3ccccc3C2=O)cc1	1979	.	.	.	.	41	-8
Cn1c(SCC(=O)Nc2cccc(F)c2)nc2c([nH]c3ccccc32)c1=O	2547	0	3.2	-1	-2	-20	6
O=C(NCCc1nc2ccccc2[nH]1)/C(=C/c1ccco1)NC(=O)c1ccccc1Br	2481	.	.	.	.	-10	-11
Cc1ccc(CN2CCN(/N=C/c3sccc3C)CC2)c(C)c1	10770	.	.	.	.	-32	3
CCCCc1nnc(NC(=O)CSCc2cc(=O)n3ccsc3n2)s1	5793	5	0.5	-5	4	-11	-6
O=C(Nc1ccccc1C(=O)NN=Cc1ccc(F)cc1)c1ccccc1Br	.	13	4.8	6	6	.	.

Single entries from above.
In BJeLR viability, `Cn1c(SCC(=O)Nc2cccc(F)c2)nc2c([nH]c3ccccc32)c1=O` reads 6
In RN4220 kill, `CCCCc1nnc(NC(=O)CSCc2cc(=O)n3ccsc3n2)s1` reads 0.5

Going on with the list:
smiles	Autofluor counter	ugtP null kill	RN4220 kill	Mtb hypoxia inh	Mtb hypoxia inh growth	PrP UTR inh	BJeLR viability
CC1c2ccsc2CCN1S(=O)(=O)c1cccs1 (configuration not stated)	5888	-5	3.0	-2	11	-6	0
CC(C)CNS(=O)(=O)c1ccc(CC(C)C)cc1	4460	-5	16	14	11	-10	0
CCCN(CCC)CCCNC(=O)c1cc2c(=O)n(CC)c3ccccc3c2s1	3661	.	.	.	.	-7	14
O=C1C=C(c2ccccc2)C[C@H](c2cccs2)[C@H]1n1cnc([N+](=O)[O-])c1	3878	1	-3.1	3	2	-19	-4
CN(C)c1cc(-c2ccc(Cl)c(Cl)c2)oc(=O)c1Cl	4104	2	1.5	7	4	19	-5
Cc1cc(C(=O)OCC(=O)Nc2ccc(F)cc2F)c(C)o1	3939	-8	-0.5	.	.	-12	-11
O=C(COC(=O)c1ccc(NS(=O)(=O)c2cccs2)cc1)NCc1ccco1	4539	-11	-3.6	-6	5	-62	3
COc1ccc(CCNC(=O)COc2ccccc2[N+](=O)[O-])cc1OC	.	6	4.4	11	13	-1	2

Carrying on.
smiles	Autofluor counter	ugtP null kill	RN4220 kill	Mtb hypoxia inh	Mtb hypoxia inh growth	PrP UTR inh	BJeLR viability
CCOC(=O)c1cnc2c(C)cccc2c1NCCc1ccc(OC)c(OC)c1	.	-4	5.1	17	14	-12	-7
CC1(C(=O)NC2CCCCCCC2)CCC(=O)N1CCN1CCOCC1 (configuration not stated)	9747	7	5.7	5	6	-20	4
CCc1noc(C)c1C(=O)NNC(=O)c1cc(OC)cc(OC)c1	5622	3	2.5	1	6	.	.
CCN(CCn1cccn1)C(=O)CCc1nnc(Cc2c[nH]c3ccccc23)o1	2640	0	3.1	4	4	-33	5
CCc1cccc(OCC2Cn3c(nc4c3c(=O)[nH]c(=O)n4C)O2)c1 (configuration not stated)	4145	6	0.0	5	6	-7	2
Cc1ccccc1C(=O)N/N=C/c1cccc2ccccc12	4124	.	.	.	.	-17	1
CC(C)N(CCc1ccncc1)C(=S)Nc1ccc(F)c(Cl)c1	4712	-2	3.6	2	12	-32	3
COc1ccc(CC(=O)NC2CCN(CC(=O)Nc3ccc4c(c3)OCCO4)CC2)cc1OC	23401*	2	2.5	4	7	-10	-3

Ordered by SMILES length (lowest first): part of the list above.
smiles	Autofluor counter	ugtP null kill	RN4220 kill	Mtb hypoxia inh	Mtb hypoxia inh growth	PrP UTR inh	BJeLR viability
O=C(COc1ccccc1O)Nc1ccccc1Cl	3656	2	-2.4	.	.	-75	-9
CC1c2ccsc2CCN1S(=O)(=O)c1cccs1 (configuration not stated)	5888	-5	3.0	-2	11	-6	0
CC(C)CSc1nnc2c(n1)[nH]c1ccccc12	11366	5	21	21	12	-27	1
CC(C)CNS(=O)(=O)c1ccc(CC(C)C)cc1	4460	-5	16	14	11	-10	0
CC1c2[nH]c3ccccc3c2CCN1S(C)(=O)=O (configuration not stated)	4279	4	3.6	.	.	-14	-1
Cc1ccccc1C(=O)N/N=C/c1cccc2ccccc12	4124	.	.	.	.	-17	1
O=C(NN=Cc1cc2c(cc1Cl)OCO2)c1cccc(Br)c1	.	11	18	13	-14	.	.
CC(C)N(CCc1ccncc1)C(=S)Nc1ccc(F)c(Cl)c1	4712	-2	3.6	2	12	-32	3
CCc1noc(C)c1C(=O)NNC(=O)c1cc(OC)cc(OC)c1	5622	3	2.5	1	6	.	.
COc1ccc(C2C(CN3CCOCC3)C(=O)N2c2ccccc2)cc1 (configuration not stated)	3148	6	0.8	10	8	-31	2
Cn1c(=O)c2c(nc3n2CC(COc2ccccc2)O3)n(C)c1=O (configuration not stated)	4089	4	3.0	-11	-21	-7	-1
CCOC(=O)c1cnc2c(C)cccc2c1NCCc1ccc(OC)c(OC)c1	.	-4	5.1	17	14	-12	-7
CCCN(CCC)CCCNC(=O)c1cc2c(=O)n(CC)c3ccccc3c2s1	3661	.	.	.	.	-7	14
CCc1cccc(OCC2Cn3c(nc4c3c(=O)[nH]c(=O)n4C)O2)c1 (configuration not stated)	4145	6	0.0	5	6	-7	2
CCN(CCn1cccn1)C(=O)CCc1nnc(Cc2c[nH]c3ccccc23)o1	2640	0	3.1	4	4	-33	5
O=C(COC(=O)c1ccc(NS(=O)(=O)c2cccs2)cc1)NCc1ccco1	4539	-11	-3.6	-6	5	-62	3
Cc1ccc(NC2=C/C(=N/S(=O)(=O)c3cccs3)c3ccccc3C2=O)cc1	1979	.	.	.	.	41	-8
O=C(NCCc1nc2ccccc2[nH]1)/C(=C/c1ccco1)NC(=O)c1ccccc1Br	2481	.	.	.	.	-10	-11
O=C1C=C(c2ccccc2)C[C@H](c2cccs2)[C@H]1n1cnc([N+](=O)[O-])c1	3878	1	-3.1	3	2	-19	-4

The results go on:
smiles	Autofluor counter	ugtP null kill	RN4220 kill	Mtb hypoxia inh	Mtb hypoxia inh growth	PrP UTR inh	BJeLR viability
CC(=O)NC(Cc1ccccc1)C(=O)NC1CCN(C(=O)NC2CCCCC2)CC1 (configuration not stated)	8862	5	4.4	4	1	.	0
CC(C)c1c(O)nc(SCC(=O)N2CCOCC2)[nH]c1=O	9510	2	0.5	5	3	-14	-1
c1ccc(-c2onc(-c3ccco3)c2-c2ccc3c(c2)OCO3)cc1	3991	10	-2.6	2	-2	-15	5
O=C(NCC1CCCO1)c1coc2nc3ccccc3nc12 (configuration not stated)	2763	-7	-15	4	-3	-2	-4
CSc1ccccc1NC(=O)c1cc(CC(C)C)on1	6197	9	-1.9	0	4	-18	-2
Oc1ccccc1/C=N/n1cnn(Cc2ccccc2Cl)c1=S	2524	.	.	.	.	-14	-2
Cc1ccc(NC2c3ncccc3C(=O)N2c2ccccc2C)cc1C (configuration not stated)	11018	-2	2.8	-2	1	-49	10
O=C(COC(=O)Cn1cnc2ccccc21)Nc1ccc2c(c1)C(=O)c1ccccc1C2=O	2032	.	.	.	.	-38	-4

(next part)
smiles	Autofluor counter	ugtP null kill	RN4220 kill	Mtb hypoxia inh	Mtb hypoxia inh growth	PrP UTR inh	BJeLR viability
CN(CC(=O)Nc1ccc(OC(F)(F)F)cc1)C(=O)/C=C/c1cc2c(cc1[N+](=O)[O-])OCO2	3864	-2	1.6	30*	63*	-14	.
COc1ccc(OC)c(NC(=O)CSc2ccc(-c3ccco3)nn2)c1	4792	-4	-1.3	6	2	-9	-4
N#C/C(=C\Nc1ccc(Cl)cn1)S(=O)(=O)c1ccccc1	4245	5	-1.0	10	5	-22	4
COc1cccc(C(=O)CC(=O)C(=O)Nc2cccc([N+](=O)[O-])c2C)c1	3746	37	38	1	-4	-2	4
CCOc1ccc(NC(=O)CNC(=O)c2nn(-c3ccc(OC)c(OC)c3)c(=O)c3ccccc23)cc1	3487	0	5.6	-1	7	0	-3
Cc1ccc2nc(N/N=C/c3ccccc3F)nc(-c3ccccc3)c2c1	2588	.	.	.	.	-33	0
Cc1c(Cl)c(=O)n2c(=O)c(Cl)c(C)n12	2123	3	8.3	7	1	-12	3
Cc1ccc(C)c(N2CN(CCC3=CCCCC3)CNC2=S)c1	.	4	2.8	-5	-1	-24	-13

(next part)
smiles	Autofluor counter	ugtP null kill	RN4220 kill	Mtb hypoxia inh	Mtb hypoxia inh growth	PrP UTR inh	BJeLR viability
COc1cccc(OC)c1C(=O)NNS(=O)(=O)c1ccc2ccccc2c1	6046	7	5.5	-2	0	-16	.
CN(CC(=O)NCc1cccnc1)S(=O)(=O)c1ccccc1	3407	3	7.3	-1	-6	-7	-3
CC1(C)C(=O)Nc2ccccc2N1C(=O)CSc1nc(-c2ccccc2)cs1	2672	14	3.2	16	-2	-19	17
CC(=O)Nc1ccc(-c2nnc(SCC(=O)Nc3ccc4c(c3)oc3ccccc34)n2C)cc1	6700	8	-1.9	7	12	-56	7
CCOC(=O)/C(=N/Nc1ccccc1OC)N1CCCc2ccccc21	3989	.	.	.	.	-2	-1
CCOC(=O)c1sc(N=CN(C)C)c(C(=O)OCC)c1C	.	9	12	9	9	.	.
Cc1cccc(Cc2nnc(CCC(=O)N(C)CCc3ccccc3)o2)c1	4072	3	2.1	0	-10	-67	-12
Cc1c(C(c2ccccc2Br)c2c(C)n(C)n(-c3ccccc3)c2=O)c(=O)n(-c2ccccc2)n1C	3984	3	3.1	18	5	-25	-4

(next part)
smiles	Autofluor counter	ugtP null kill	RN4220 kill	Mtb hypoxia inh	Mtb hypoxia inh growth	PrP UTR inh	BJeLR viability
CSCC[C@H](NC(=O)CCNC(C)=O)c1nc2ccccc2[nH]1	2819	-5	-4.0	.	.	-16	0
Cc1cc(-c2ccc(C)c(S(=O)(=O)NCCN3CCC(C)CC3)c2)on1	6105	5	-0.3	1	8	-20	0
OCC[C@@H]1C[C@H](O)[C@@H](O)[C@]2(CCCCO2)O1	2951	.	.	.	.	-22	-6
CN(C)CCNC(=O)/C=C/c1cn(-c2ccccc2)nc1-c1cc2ccccc2oc1=O	4397	-2	3.1	8	4	-31	-2
CC(CC(=O)NCc1ccccc1)=NNC(=O)c1cnccn1	.	2	0.4	6	1	.	.
COC(=O)[C@H](CC(C)C)NC(=O)NC1CCCCC1C (some centres not stated)	17745*	9	1.5	18	11	-15	-2
Fc1ccc(C2C3=C(Nc4ncnn42)c2ccccc2OC3c2ccncc2)cc1 (configuration not stated)	3073	7	-3.4	.	.	-9	2
CC(NC(=O)C1C2C=CC(C2)C1C(=O)O)c1ccccc1 (configuration not stated)	10474	1	5.5	6	8	-8	0

Screening data from PubChem BioAssay.

An unsorted share of the library. Share with any hit: about 3.9%.
